# Compound activity deposited in PubChem by several laboratories.
# Bfl-1 A1 inh = inhibitors of the anti-apoptotic protein A1, read as caspase activation | MEF A1-2A-BIM cells, Caspase-Glo 3/7 luminescence, 3 h; percent of clofoctol response, vehicle zero | caspase activation, % (no concentration beside the values) | 330,000 compounds, 0.066% hits | AID 2462;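 active = over half of replicate activation scores above 10%, or exactly half above 10 with the replicate mean above 10; inconclusive = replicate mean below 10 yet half the replicates above 10; inactive = over half of replicates below 10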;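 also: wells of about 30 µL received 50 nL stock; many hits fall short of the cut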
# B2AR ag = agonists of human beta-2 adrenergic receptor inducing internalization. P07550. Am2.2-beta2AR cells, FAP receptor internalization, flow cytometry; reference of the scale not given here. response, % (no concentration beside the values). 340,000 compounds, 0.43% hits;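 active = response above a set limit, near 3 SD of response in nonfluorescent compounds, cut at about 42% in these data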;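 also: stock transfer was 100 nL into about 11 µL; a reference agonist was the positive control; negative values mostly stem from fluorescent compounds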
# Target sequence (P07550 whole entry, looked up): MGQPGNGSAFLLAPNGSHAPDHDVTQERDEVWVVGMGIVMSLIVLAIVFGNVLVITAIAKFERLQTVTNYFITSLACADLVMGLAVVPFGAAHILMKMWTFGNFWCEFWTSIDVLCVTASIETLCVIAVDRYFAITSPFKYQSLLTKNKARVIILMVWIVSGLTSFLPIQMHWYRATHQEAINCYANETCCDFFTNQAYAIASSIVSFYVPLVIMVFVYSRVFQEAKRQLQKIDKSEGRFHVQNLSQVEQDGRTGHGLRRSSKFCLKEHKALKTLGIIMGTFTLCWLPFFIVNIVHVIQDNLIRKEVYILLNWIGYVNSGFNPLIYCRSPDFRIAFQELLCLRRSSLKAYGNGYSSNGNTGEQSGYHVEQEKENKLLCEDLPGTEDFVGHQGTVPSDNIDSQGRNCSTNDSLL
# HNF4A DNA FP = change in binding of human HNF4 alpha to DNA. HNF4a-FITC DNA binding, fluorescence polarization, 1 h. activity change, % at 10 µM. 360,000 compounds, 0.3% hits. AID 1224865; in the data active = activity change above about 30%, passing the limit was not always enough;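 also: controls were the assay level and a saturating level of protein; the project sought stronger binding though the title names inhibitors; some compounds called inactive have numbers as strong as hits; positive values seem to mean higher polarization but the record does not say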
# LANA-H2A inh = blocks KSHV LANA binding to histone H2A/H2B; 320,000 compounds, 0.6% hits; cell-free LANA-H2A/H2B peptide, fluorescence polarization; inhibition, % (no concentration beside the values); AID 2629; in the data active = inhibition mostly above about 10%, no sharp cut-off; inactive = mostly below about 6.7%;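 also: stock transfer was 7.5 nL into about 10 µL; 0% = median of vehicle wells and 100% = median of positive control wells; one replicate is shown; the record names a cut of 25% in any replicate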
# Vif A3G = inhibitors of Vif binding to APOBEC3G peptide, primary screen, biochemical, TR-FRET, GST-Vif 1-94, biotin-A3G peptide, dose response retest (AID 1117319) | TR-FRET GST-Vif / biotin-A3G peptide binding; higher % means a stronger effect; test concentration not given here; strong numbers were not always called active | one-dose inhibition, %; IC50 in µM for titrated hits | 260,000 compounds, 0.57% hits;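 active = above the screen mean plus three standard deviations and confirmed in dose response; inconclusive = results disagree or hit not tested in dose response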;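 also: Vif residues 1-94 fused to GST binding biotinylated APOBEC3G peptide 110-148; 0% = full assay without inhibitor and 100% = GST in place of GST-Vif; retest series ran down from 100 µM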
# E coli growth = E. coli growth inhibition; 330,000 compounds, 0.21% hits; AID 1053175; OD600 absorbance (concentration not given with the values); Escherichia coli growth, OD600, 23 h; hits give low values;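 active = OD600 absorbance below the run mean of sample wells minus 3.6 SD, in any replicate, cut at about 0.56 in these data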;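 also: stock transfer was 300 nL into about 60 µL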
# UCH37 DUB inh = human UCH37 deubiquitinating enzyme inhibition; inhibition, % (test concentration not listed); Q9Y5K5; 330,000 compounds, 0.33% hits; purified proteasome/UCH37, Ub-AMC cleavage fluorescence;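 active = mean of two replicates above 20%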;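 also: 0% = compound-free wells with enzyme and 100% = wells lacking proteasome; stock transfer was 100 nL into about 20 µL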
# Target sequence (Q9Y5K5 whole entry, looked up): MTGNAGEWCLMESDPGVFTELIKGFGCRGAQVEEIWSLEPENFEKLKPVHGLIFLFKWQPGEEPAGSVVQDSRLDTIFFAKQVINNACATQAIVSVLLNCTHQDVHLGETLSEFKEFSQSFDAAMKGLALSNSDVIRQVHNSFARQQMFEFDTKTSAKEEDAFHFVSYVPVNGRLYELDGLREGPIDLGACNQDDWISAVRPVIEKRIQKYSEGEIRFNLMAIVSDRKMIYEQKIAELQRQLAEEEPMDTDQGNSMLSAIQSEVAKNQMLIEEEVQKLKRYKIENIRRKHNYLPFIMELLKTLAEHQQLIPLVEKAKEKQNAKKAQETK
#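 assay system = human UCH37 enzyme supplied as purified proteasome complex | amount = proteasome at 0.15 nM in the dispensed enzyme solution | schedule = 30 min compound-proteasome preincubation then 25 min substrate reaction, room temperature | measured by = fluorescence, ex 355 nm, em 460 nm | benchmarks = no-proteasome wells (full inhibition) and compound-free wells (no inhibition)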
# The depositor's hits bear a star; ? = inconclusive; / = no result given.
# Every second line gives: UCH37 DUB inh	E coli growth	HNF4A DNA FP	Vif A3G	Bfl-1 A1 inh	LANA-H2A inh	B2AR ag
- O=C(NCc1ccccn1)C1CCC(CNS(=O)(=O)c2cccc3nsnc23)CC1 (stereo unspecified)
    1.1	0.688	0.8	-3.9%	-1.0	3.8	-2.4
- CCOc1ccc(/C=C2/C(=O)N(c3ccc(OC)cc3)C(=S)N2CC(=O)OC)cc1OCC
    -12.7	0.772	46.8*	-3.6%	-0.3	-6.3	3.0
- O=C(O)c1cc2c(cc1NC(=O)C1CCCC1)OCCO2
    -0.1	0.709	-1.4	-12.9%	/	/	-3.6
- Cc1cc(NC(=O)CS(=O)CC(=O)Nc2c(C)cccc2C)ccc1-n1cnnn1 (stereo unspecified)
    4.6	0.654	1.5	/	-0.4	-2.0	5.1
- Cc1ccc(C(=O)Nc2ncccc2O)cc1S(=O)(=O)N1CCCCC1
    4.8	0.602	0.3	5.5%	-0.2	-0.1	-11.7
- O=C1CC(c2ccco2)CC2=C1C1c3ccccc3C(=O)N1c1ccccc1N2 (stereo unspecified)
    1.1	0.721	-1.7	21.2%	1.4	0.2	1.1
- CN1C(=O)C2(c3ccccc31)C1CCCC=C1C(C#N)=C(N)C2(C#N)C#N (stereo unspecified)
    2.7	0.69	-0.3	17.6%	-0.2	2.8	0.5
- O=C1C2CCCCN2C(=O)N1CCCCN1CCN(c2cccc(Cl)c2)CC1 (stereo unspecified)
    2.3	0.645	1.0	/	0.6	-3.0	-7.2
- O=C1N=C(c2ccccc2)C(c2ccccc2)N1 (stereo unspecified)
    -169.6	0.658	2.5	0.8%	-0.3	-0.9	-3.8
- Cc1ccc(CCNC(=O)c2nnn(-c3cccc(C)c3)c2N)cc1
    0.8	0.736	1.5	0.7%	-0.2	3.2	5.2
- C=CCOc1cccc(C(=O)N(C)C2CCCN(Cc3ccccc3F)C2)c1 (stereo unspecified)
    /	/	-1.1	-3.7%	-0.1	-3.3	-4.8
- C=CCNC(=S)NNC(=O)C(CCCC)CC(C)O (stereo unspecified)
    1.9	0.774	-0.5	?	1.2	-6.8	6.5
- CC(c1ccc(F)cc1)n1cc(S(=O)(=O)N2CCCC2)ccc1=O (stereo unspecified)
    1.2	0.678	-0.2	-4.7%	-0.5	5.1	-0.3
- O=c1c2c3nc4ccccc4nc3n(/N=C/c3ccncc3)c2ncn1-c1ccccc1
    /	/	-0.8	?	0.2	-0.3	/
- CCOc1ccc(-n2nc3c(Cl)nnc(C)c3c2C)cc1
    -3.8	0.694	13.3	?	0.2	-0.1	-6.4
- CCOC(=O)N1CCC(N(CCOC)C(=O)Nc2ccc(C)c(C)c2)CC1
    0.9	0.695	0.4	?	-5.9	-6.6	6.5
- CCOC(=O)C1CCCN(C(=O)/C=C/c2ccc(Cl)cc2)C1 (stereo unspecified)
    0.7	0.651	-0.1	-4.4%	-0.6	-7.3	-0.6
- O=C(NCc1ccc(Cl)cc1)C1CCN(S(=O)(=O)N2CCOCC2)CC1
    -0.7	0.611	-2.7	8.8%	-0.8	-3.5	-2.1
- O=C(CSc1nc2ccccc2c2nc3ccccc3n12)NCc1ccco1
    -1.9	0.694	-6.6	2.9%	-1.3	-4.8	-16.7
- COc1ccccc1NC(=O)Cn1c(CCC(=O)O)ccc1-c1ccccc1
    -2.1	0.707	3.0	-8.0%	-0.9	0.0	-2.4
- CC(Oc1ccccc1)C(=O)NNC(=O)c1ccccn1 (stereo unspecified)
    0.4	0.695	-0.3	/	1.7	-4.1	0.6
- CC(C)CC(=O)Nc1c2c(nn1-c1ccc(F)cc1)CSC2
    6.0	0.706	-0.2	-0.8%	1.8	-3.7	-0.2
- COc1ccc(C(=O)CSc2nnc(C(CO)NC(=O)c3ccc(OC)cc3)n2C)cc1 (stereo unspecified)
    1.2	0.689	-2.1	1.4%	0.0	1.7	-9.4
- O=c1cnnc(Nc2ccc(Cl)c(C(F)(F)F)c2)[nH]1
    4.7	0.619	-3.7	-4.8%	-0.8	-1.4	13.6
- C/C(=N\NC(=O)c1cccnc1)c1ccc(-n2ccnc2)cc1
    /	/	1.1	2.0%	-0.5	6.0	1.5
- Cc1ccc(C(=O)Nc2cccc([N+](=O)[O-])c2)cc1S(=O)(=O)Nc1cccc(C(=O)O)c1
    3.0	0.658	-4.7	-6.4%	0.3	0.7	2.2
- Cc1ccc(CSc2ccc3nnc(-c4cccnc4)n3n2)cc1
    3.5	0.66	0.9	/	-1.6	1.5	-11.0
- COc1cc(S(=O)(=O)Nc2ccc(Br)cc2)ccc1N
    5.2	0.667	0.5	-9.8%	0.0	-2.2	-7.5
- COP(=O)(OC)C(Nc1ccc([N+](=O)[O-])cc1)c1ccccc1 (stereo unspecified)
    10.6	0.629	0.2	-3.8%	1.8	3.9	1.3
- Cc1cccc(NC(=O)c2ccc(OCc3c(C)noc3C)cc2)c1
    0.9	0.624	7.4	-7.6%	0.6	/	-2.5
- CCOC(=O)c1cnc2c(C)cccc2c1NCc1ccco1
    -13.0	0.694	-0.9	-7.9%	-0.6	-1.9	-5.4
- Cc1cccc(NC(=O)CSc2nc(C)c(Cc3ccccc3)c(=O)[nH]2)c1C
    2.9	0.681	/	-1.4%	-0.2	3.3	/
- CC(=O)C1=C(O)C(=O)N(Cc2cccnc2)C1c1ccc(C)cc1 (stereo unspecified)
    9.4	0.683	/	-5.0%	/	/	/
- CC(NC(=O)c1ccc([N+](=O)[O-])o1)C12CC3CC(CC(C3)C1)C2 (stereo unspecified)
    2.7	0.653	1.7	/	0.4	0.3	-0.4
- CN(C)C(CNC(=O)Cc1ccc([N+](=O)[O-])cc1)c1ccccc1 (stereo unspecified)
    0.3	0.69	1.6	9.6%	-0.2	0.8	3.8
- COC(C/C=C/[C@H](O)[C@@H](C)OCc1ccccc1)OC
    /	/	-0.4	/	-1.5	-1.5	-8.4
- O=C(CCN1C(=O)S/C(=C/c2ccccc2)C1=O)Nc1ccc(C(=O)O)c(O)c1
    5.3	0.711	3.0	/	-7.7	1.4	-2.1
- COC(=O)c1ccc(NC(=O)CN2CCOCC2)cc1
    0.4	0.637	-0.5	3.4%	0.1	-1.0	3.3
- O=C(Cn1c(=O)oc2ccccc21)NC(=O)NCc1ccco1
    2.0	0.668	-3.5	12.9%	-0.8	0.4	-2.6
- CCOC(=O)C1CCN(C(=O)CS(=O)Cc2nc(-c3ccc(C)cc3)oc2C)CC1 (stereo unspecified)
    4.9	0.753	1.1	8.2%	/	3.3	-4.5
- CSc1nnc(CNC(=O)c2ccccc2)n1-c1ccc(F)cc1
    5.8	0.737	2.3	2.2%	0.5	-4.2	-6.5
- CCOC(=O)c1n[nH]n2c1nc(=S)c1ccccc12
    /	/	2.3	/	-1.1	-0.4	7.1
- CCOc1ccccc1NC(=O)CN1C(=O)C(C)SC(C)C1=O (stereo unspecified)
    1.9	0.709	-0.5	/	-0.9	4.9	-7.1
- COC(=O)c1sccc1NC(=O)Nc1ccc(OC)cc1
    0.3	0.742	3.5	-1.7%	-13.9	0.0	-0.5
- CN(C)Cc1cnc2ccc(Cl)cn12
    2.1	0.672	-1.2	1.7%	0.8	-2.1	-3.5
- Cc1noc(C)c1CSc1nnc(-c2ccccc2)n1N
    -5.1	0.724	1.2	-2.5%	-0.5	2.5	-1.4
- COc1ccc(C(=O)Nc2ccc(/C(C)=N/NC(=O)c3ccncc3)cc2)cc1
    /	/	7.4	/	0.5	-4.5	-0.6
- Cc1cc2nc(-c3cc(N4CCOCC4)ccc3[N+](=O)[O-])ccn2n1
    12.0	0.705	-0.3	-0.8%	-0.6	-2.0	3.5
- CCCCn1c(=O)[nH]c(=O)c2c1nc(-c1ccc(OC)c(Br)c1)n2CC(C)C
    -6.6	0.7	-0.8	/	-0.3	-0.6	-5.2
- Cc1ccc(S(=O)(=O)NCC(=O)OC2CCOC2=O)cc1 (stereo unspecified)
    1.9	0.704	1.2	-5.2%	?	-2.3	-3.4
- CCOC(=O)c1ccc(NC(=O)CCC(CC)C(=O)O)cc1 (stereo unspecified)
    2.4	0.716	-3.8	1.1%	-0.3	0.9	1.3
- COc1ccc(-c2cn3cccc(C)c3n2)cc1F
    -17.1	0.627	-1.3	/	-4.0	-2.2	3.8
- C/C(Nc1ccccc1)=C(/C#N)C(N)=O
    5.4	0.713	4.4	4.1%	-0.8	5.5	-6.8
- COc1ccc2c(c1)c(=O)oc1cc(OCC(=O)NC3CC3)ccc12
    -54.6	0.778	-3.7	-2.0%	-0.8	-1.1	5.5
- Cc1cccc(OCCCC(=O)NNC(=O)c2cccc(N(C)C)c2)c1
    -6.3	0.641	4.0	-2.0%	1.3	-9.8	-0.8
- O=C(NCc1cccnc1)C12CC3CC(CC(C3)C1)C2
    1.2	0.646	-3.4	4.5%	-0.2	0.2	-12.8
- Cc1ccc(CNC(=O)CC2Sc3ccccc3NC2=O)cc1 (stereo unspecified)
    4.1	0.726	-1.0	?	0.2	-3.4	7.6
- NC(=O)Cn1nnc(-c2ccc(CN3CCCCC3)cc2)n1
    0.6	0.648	-0.1	-1.4%	-1.3	2.2	6.0
- COC(=O)c1cc2n(n1)CCN(Cc1ccc(OC)cc1)C2=O
    2.4	0.719	-0.5	-1.8%	-0.6	2.1	4.5
- O=C1CSC(c2ccc3c(c2)OCO3)N1c1ccc(Oc2ccccc2)cc1 (stereo unspecified)
    3.3	0.732	-4.4	-0.8%	0.1	-2.0	-12.8

# Following part.
# Every second line gives: UCH37 DUB inh	E coli growth	HNF4A DNA FP	Vif A3G	Bfl-1 A1 inh	LANA-H2A inh	B2AR ag
- Cc1cc(-c2ccccc2)c2c(n1)sc1c(O)cc(=O)[nH]c12
    -54.9	0.706	/	5.5%	0.1	0.1	/
- Cc1nc2ccc(NS(=O)(=O)c3ccc(F)cc3)cc2s1
    1.8	0.653	-0.6	-8.6%	-0.3	-5.2	-3.1
- O=C(c1ccc(-n2cncn2)c([N+](=O)[O-])c1)N1CCN(S(=O)(=O)c2ccc(Cl)cc2)CC1
    2.7	0.702	-0.5	4.4%	1.7	-1.7	7.8
- C/C(=N/NC(=O)c1cccs1)c1c(C)[nH]n(-c2nc3ccccc3s2)c1=O
    /	/	-4.3	/	-6.1	-2.8	-1.5
- O=C(Nc1cc2c3c(c1)C1CCCC1CN3CC1CCCC21)c1ccc([N+](=O)[O-])cc1 (stereo unspecified)
    4.3	0.674	-6.9	?	-0.6	5.3	-10.9
- Cc1ccc(S(=O)(=O)N2CCCC2C(=O)Nc2nc3c(s2)CCCC3)cc1 (stereo unspecified)
    4.7	0.69	2.3	10.9%	0.6	0.6	-4.7
- CC(/C=C/c1ccccc1)=N\NC(=O)C1CC1(C)c1ccccc1 (stereo unspecified)
    /	/	-2.8	/	0.0	3.9	4.4
- Cc1ccc(C)c(N2CCN(C(=O)CCS(=O)(=O)c3ccc4c(c3)NC(=O)CO4)CC2)c1
    1.8	0.663	0.6	/	0.7	-3.7	11.1
- C=CCSc1nnc(NC(=O)CSc2ccccn2)s1
    4.2	0.761	/	-2.3%	-0.7	3.6	/
- CCOC(=O)Cc1csc(NC(=O)CC(C)(C)C)n1
    0.4	0.738	2.8	9.6%	-2.1	-3.9	-11.3
- CC(C)(C)c1nnc2sc(SCCN3C(=O)c4ccccc4C3=O)nn2c1=O
    6.3	0.724	0.6	14.6%	0.1	0.0	-22.4
- Cc1ccc(-c2nc3cccnc3o2)cc1NC(=O)COc1ccc(Cl)cc1C
    -10.7	0.693	-2.1	30.4%	0.6	-0.2	-12.5
- COc1ccc(C(=O)NC(=S)NCc2cccnc2)cc1OC
    1.8	0.64	0.1	15.1%	0.6	0.5	-3.8
